Polio RdRp inh: inhibitors of poliovirus RNA polymerase binding and polymerization | poliovirus polymerase elongation, fluorescence polarization; active compounds read low | P03300 | 150,000 tested, 0.66% active | % elongation, % (compound at 16.7 µg/mL); in the data active = % elongation below about 90%; note: some results filed as inactive read as strong as hits
Target sequence (P03300 1749-2209 limits assumed): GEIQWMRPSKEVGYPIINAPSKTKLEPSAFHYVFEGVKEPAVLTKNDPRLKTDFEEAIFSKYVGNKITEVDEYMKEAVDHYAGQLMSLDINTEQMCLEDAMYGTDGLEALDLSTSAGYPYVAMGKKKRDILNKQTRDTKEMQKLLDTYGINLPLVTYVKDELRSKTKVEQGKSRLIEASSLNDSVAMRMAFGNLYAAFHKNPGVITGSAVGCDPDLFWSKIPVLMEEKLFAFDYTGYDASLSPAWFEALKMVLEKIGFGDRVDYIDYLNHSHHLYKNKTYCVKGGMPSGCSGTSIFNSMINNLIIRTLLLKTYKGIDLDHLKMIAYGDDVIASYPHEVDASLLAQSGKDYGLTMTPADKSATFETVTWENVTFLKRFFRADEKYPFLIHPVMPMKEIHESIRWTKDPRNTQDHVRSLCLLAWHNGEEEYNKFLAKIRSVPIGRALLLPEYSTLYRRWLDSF
Polio RdRp inh intensity: recorded beside Polio RdRp inh, whose call it bears; % elongation; measured here: total intensity read-out; formula for this scale not given here;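 total fluorescence in place of polarization; lower means less elongation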
* = called active by the depositor. A portion of the library; count on the stated rates, not on these rows.

Molecule | Polio RdRp inh | Polio RdRp inh intensity
COc1cccc(NC(=O)CCNC(=O)Cn2cnc3ccccc3c2=O)c1 | 106 | 105
O=C(CSc1nc2c([nH]c3ccccc32)c(=O)n1-c1ccc(Cl)cc1)NCC1CCCO1 (centres undefined) | 107 | 107
CCOC(=O)c1ccc(-c2ccc(/C=C(\C#N)C(=O)Nc3ccc(C)cc3)o2)cc1 | 103 | 106
Cc1ccc2c(=O)cc(C(=O)Nc3sc4c(c3C(=O)NCc3cccnc3)CCCC4)oc2c1 | 109 | 110
COc1ccc(NC(=O)CSc2nc(-c3ccc(F)cc3)c3cccc(C)c3n2)cc1 | 105 | 114
Cc1c(Cl)cccc1NC(=O)c1oc2ccc(S(=O)(=O)N3CCCCCC3)cc2c1C | 105 | 110
COc1ccc(C(=O)NCCc2csc(-c3ccc(Cl)cc3)n2)cc1 | 105 | 101
CC(=O)Nc1cc(C(=O)NCc2ccccc2)ccc1Sc1ccc(C)cc1 | 111 | 116
O=c1oc2ccccc2cc1-c1cn2cc(Cc3ccccc3F)sc2n1 | 106 | 110
CC1CCN(S(=O)(=O)c2ccc3c(c2)oc(=O)n3CC(=O)NC(C)c2ccccc2)CC1 (centres undefined) | 101 | 100
Cc1ccc(-c2cc(NC(=O)C(C)Oc3ccc(C)c(C)c3)on2)cc1 (centres undefined) | 109 | 98
CC(=O)c1c(C)oc2ccc(N(C(=O)Oc3ccccc3)S(=O)(=O)c3ccc(C(C)(C)C)cc3)cc12 | 101 | 105
Cc1cn2c(=O)cc(COC(=O)c3cccc(NC(=O)COc4ccccc4Cl)c3)nc2s1 | 110 | 102
CCN(C(=O)c1cc2c(=O)n(CC)c3ccccc3c2s1)c1cccc(C(F)(F)F)c1 | 109 | 111
CC(C)CCNC(=O)c1cnc2sc(N3CCCCCC3)nn2c1=O | 110 | 107
O=C(CN1C(=O)C2(SCC(=O)N2c2cccc(Cl)c2)c2ccccc21)NC1CCCCC1 (centres undefined) | 112 | 113
Cc1cc(-c2ccc(C)c(S(=O)(=O)N3c4ccccc4CC3C)c2)on1 (centres undefined) | 110 | 105
Cc1cccc(CNC(=O)c2ccc3c(c2)N(C)C(=O)C2CCCCN32)c1 (centres undefined) | 101 | 111
Cc1cccc(C)c1NC(=O)C(=O)NCC(c1ccc2c(c1)OCO2)N1CCN(C)CC1 (centres undefined) | 110 | 109
C#CCn1c(=NC(=O)c2ccc3c(c2)OCCO3)sc2cc(OC)c(OC)cc21 | 109 | 111
CCCCNC(=O)C1CCN(S(=O)(=O)CCC)CC1 | 115 | 123
COc1ccc(S(=O)(=O)NCC(c2ccco2)S(=O)(=O)c2cccs2)cc1OC (centres undefined) | 107 | 114
Cc1ccc(CCNC(=O)c2ccc3c(=O)n(-c4ccccc4)c(=O)[nH]c3c2)cc1 | 109 | 112
COc1ccc(Cn2c(=O)c3cccnc3n(Cc3cccc(OC)c3)c2=O)cc1 | 102 | 106
CCOc1ccc(CNC(=O)c2ccc(CS(=O)Cc3ccc(Cl)cc3)o2)cc1 (centres undefined) | 109 | 111
COc1ccc(C2C=C(c3ccccc3)Nc3nc(NC(=O)c4ccc(C)cc4)nn32)cc1 (centres undefined) | 111 | 124
Cc1cc2nc(-c3ccc(OCc4ccccc4)cc3)cc(C(F)(F)F)n2n1 | 108 | 108
Cc1ccc(NC(=O)c2c(C)cc(C)nc2SCC(=O)Nc2ccc(Br)cc2)cc1 | 109 | 112
Cc1cccc(C(=O)Nc2cccc(C(=O)OCc3cc(=O)n4c5c(sc4n3)CCCC5)c2)c1 | 108 | 97
Cn1c(=O)c2c(-c3ccc(Cl)cc3)ccnc2n(C)c1=O | 93 | 93
Fc1ccc(N2CCN(Cc3nnc(-c4ccccc4Cl)o3)CC2)cc1 | 107 | 106
COc1ccc(Cn2ccc3nc(C)c(C(=O)N4CCN(c5cc(C)ccc5C)CC4)cc3c2=O)cc1 | 114 | 119
CC(C)Cc1nn2c(=O)cc(COC(=O)c3ccccc3NC(=O)c3cccs3)nc2s1 | 99 | 105
COc1ccc(-c2[nH]c3ccccc3c2SCCNC(=O)c2cc(OC)c(OC)c(OC)c2)cc1 | 102 | 105
CC(C)c1ccccc1NC(=O)CSc1nnc(COc2ccccc2Cl)o1 | 103 | 98
Cc1cc(=O)[nH]c2nnc(SCC(=O)NC(C)(C)C)n12 | 104 | 104
CC(C)C(=O)Nc1cccc(C(=O)Nc2nnc(C(F)(F)F)s2)c1 | 104 | 109
O=C(NCc1cccc(Cl)c1)c1ccc2nc(N3CCCCC3)sc2c1 | 106 | 106
O=c1n(Cc2ccc(Cl)cc2)c2ccccc2c2nc(-c3ccccc3)nn12 | 107 | 108
COc1ccc(Cn2c(=O)c3oc4ccccc4c3n(CC(=O)Nc3ccc(F)cc3F)c2=O)cc1 | 116 | 124
O=C1CCSC2(C(=O)N(Cc3ccc(F)cc3)c3ccccc32)N1c1ccc(Cl)cc1 (centres undefined) | 102 | 107
COc1cc(-c2nc(Cn3nnc(C(=O)Nc4ccccc4C)c3C)c(C)o2)cc(OC)c1OC | 109 | 111
CCS(=O)(=O)N1CC(=O)N(c2ccc(Cl)cc2C)C(C)(C(=O)NC2CCCCC2)C1 (centres undefined) | 109 | 109
O=C(CCSCCc1ccccn1)Nc1cc(F)ccc1F | 109 | 111
Cc1ccc(OCc2cc(=O)n3c(-c4ccccc4)csc3n2)cc1 | 108 | 112
CC(C)(C)OC(=O)N1CCC(c2c(C(=O)NCc3ccccn3)cnn2-c2ccccc2Cl)CC1 | 104 | 105
O=C(c1ccccc1)N1CCc2cc(CNS(=O)(=O)c3ccc(Cl)s3)ccc21 | 107 | 110
CCN(CC)C(=O)c1ccc(NC(=O)CCn2nc(-c3ccc(C)cc3)c3ccccc3c2=O)cc1 | 110 | 109

An excerpt from above in order of formula weight, low to high.
Molecule | Polio RdRp inh | Polio RdRp inh intensity
O=C(CCSCCc1ccccn1)Nc1cc(F)ccc1F | 109 | 111
Cc1ccc(OCc2cc(=O)n3c(-c4ccccc4)csc3n2)cc1 | 108 | 112
O=C(c1ccccc1)N1CCc2cc(CNS(=O)(=O)c3ccc(Cl)s3)ccc21 | 107 | 110
CCS(=O)(=O)N1CC(=O)N(c2ccc(Cl)cc2C)C(C)(C(=O)NC2CCCCC2)C1 (centres undefined) | 109 | 109
COc1cc(-c2nc(Cn3nnc(C(=O)Nc4ccccc4C)c3C)c(C)o2)cc(OC)c1OC | 109 | 111
COc1ccc(Cn2c(=O)c3oc4ccccc4c3n(CC(=O)Nc3ccc(F)cc3F)c2=O)cc1 | 116 | 124
CC(C)(C)OC(=O)N1CCC(c2c(C(=O)NCc3ccccn3)cnn2-c2ccccc2Cl)CC1 | 104 | 105

(next part)
Molecule | Polio RdRp inh | Polio RdRp inh intensity
Cc1ccc(NC(=O)C2CCCN(c3cnccn3)C2)c(C)c1 (centres undefined) | 102 | 103
Cc1ccc(CNC(=O)CSc2nc3ccsc3c(=O)n2-c2ccc(Br)cc2)cc1 | 103 | 110
CCCc1cc(=O)[nH]c2nnc(SCC(=O)Nc3cccc(C)c3)n12 | 114 | 108
COC(=O)c1ccc(NC(=O)CSc2nc(=O)[nH]c3c2CCCC3)cc1 | 105 | 112
COc1ccc(N(C)C(=O)NCc2noc3ccc(C)cc23)c(OC)c1 | 108 | 95
O=C(c1nc(-c2ccc(Cl)cc2)n2c1CCCCC2)N1CCN(c2ccc(F)cc2)CC1 | 110 | 115
CC(C)(C)OC(=O)N1CCC(c2c(C(=O)N3CCN(c4ccccn4)CC3)cnn2-c2ccc(F)cc2)CC1 | 105 | 112
CCc1ccc(OCC(=O)NCC(c2ccc(OC)cc2)N2CCOCC2)cc1 (centres undefined) | 106 | 103
O=C(Nc1ccc(NC(=O)c2ccc(Br)cc2)c(Cl)c1)c1ccc(Br)cc1 | 104 | 110
CCOc1ccc(CNC(=O)Cn2nc(C)c3nn(-c4ccc(Cl)cc4)c(C)c3c2=O)cc1 | 111 | 103
CCCN1CCc2nc(SCC(=O)Nc3ccc(C)c(Cl)c3)[nH]c(=O)c2C1 | 119 | 112
CCc1ccc(Oc2nc3c(C)cccn3c(=O)c2/C=C(\C#N)c2nc3ccccc3s2)cc1 | 103 | 144
COc1ccc(-c2nn(-c3ccc(F)cc3)c3c2cnc2ccc(F)cc23)cc1OC | 109 | 112
COc1ccc(CCNC(=O)CCCn2c(SCC(N)=O)nc3cc4c(cc3c2=O)OCO4)cc1OC | 116 | 112
COc1ccc(CNC(=O)c2cnn3c(C)c(Cc4ccc(F)cc4)c(C)nc23)cc1 | 106 | 105
CCOc1ccc(C2c3c(oc4ccc(C)cc4c3=O)C(=O)N2Cc2ccc3c(c2)OCO3)cc1OC (centres undefined) | 107 | 100
Cc1ccc(NC(=O)CSC2=Nc3ccccc3C3=NC(Cc4ccccc4)C(=O)N23)cc1C (centres undefined) | 100 | 103
Cc1oc(-c2cccc(Cl)c2)nc1CSCC(=O)NCc1ccccc1Cl | 108 | 107
O=C(CSc1nnc(-c2ccc(Br)cc2)n1-c1ccccc1)c1ccccc1 | 110 | 109
Cc1ccc(Cn2cc(S(=O)(=O)c3cccc(Cl)c3)c(=O)c3cc(F)c(N4CCOCC4)cc32)cc1 | 112 | 105
CCN(C(=O)c1cn(CC(C)C)c(=O)c2cc(OC)c(OC)cc12)c1cc(OC)ccc1OC | 101 | 104
CCc1ccc(NC(=O)c2cc(S(=O)(=O)NC3CCCC3)ccc2F)cc1 | 102 | 99
COc1cc(NC(=O)Cn2c(=O)n(Cc3ccccc3OC)c(=O)c3cccnc32)cc(OC)c1 | 106 | 104
Cc1ccc(CCNC(=O)C2CCN(c3nnc(C)c4c(C)n(-c5ccccc5)nc34)CC2)cc1 | 103 | 112

Some of the entries so far, with two lines to a compound.
Below each compound: Polio RdRp inh, Polio RdRp inh intensity
> Cc1ccc(NC(=O)CSC2=Nc3ccccc3C3=NC(Cc4ccccc4)C(=O)N23)cc1C (centres undefined)
    100, 103
> Cc1oc(-c2cccc(Cl)c2)nc1CSCC(=O)NCc1ccccc1Cl
    108, 107
> O=C(CSc1nnc(-c2ccc(Br)cc2)n1-c1ccccc1)c1ccccc1
    110, 109
> Cc1ccc(Cn2cc(S(=O)(=O)c3cccc(Cl)c3)c(=O)c3cc(F)c(N4CCOCC4)cc32)cc1
    112, 105
> CCN(C(=O)c1cn(CC(C)C)c(=O)c2cc(OC)c(OC)cc12)c1cc(OC)ccc1OC
    101, 104

An excerpt of these results, with each value named.
smiles: Cc1oc(-c2cccc(Cl)c2)nc1CSCC(=O)NCc1ccccc1Cl
  Polio RdRp inh = 108 | Polio RdRp inh intensity = 107

smiles: O=C(CSc1nnc(-c2ccc(Br)cc2)n1-c1ccccc1)c1ccccc1
  Polio RdRp inh = 110 | Polio RdRp inh intensity = 109

smiles: Cc1ccc(Cn2cc(S(=O)(=O)c3cccc(Cl)c3)c(=O)c3cc(F)c(N4CCOCC4)cc32)cc1
  Polio RdRp inh = 112 | Polio RdRp inh intensity = 105

Going on with the list.
Molecule | Polio RdRp inh | Polio RdRp inh intensity
COc1cc(CNC(=O)c2ccc3nc(Cc4ccccc4)oc3c2)cc(OC)c1OC | 112 | 103
CCCCOc1ccc(C(=O)Nc2sc3c(c2C(=O)OCC)CCCCC3)cc1 | 102 | 102
Cc1ccc(NC(=O)c2cccc(N3CCCS3(=O)=O)c2)cc1C | 107 | 112
CCCc1cc(=O)[nH]c(Nc2ccccc2O)n1 | 111 | 131
CC1CCC(N2CC(=O)N(CCC3=CCCCC3)C(c3ccc(F)cc3)C2=O)CC1 (centres undefined) | 111 | 110
COc1ccc(-n2nc(C(=O)NCCCOC(C)C)c3c4ccccc4n(C)c3c2=O)cc1 | 111 | 114
Cc1ccc(SCC(=O)Nc2ccc(O)c(-c3nc4cc(C)ccc4o3)c2)cc1 | 109 | 105
CCOC(=O)c1ccc(CN(Cc2ccc(F)cc2)S(=O)(=O)c2cc(C(=O)Nc3cccc(C(F)(F)F)c3)ccc2F)cc1 | 106 | 107

Entries of single compounds from above. Screens in order: Polio RdRp inh	Polio RdRp inh intensity
Shown for `CCCc1cc(=O)[nH]c(Nc2ccccc2O)n1` → 111	131
Shown for `Cc1ccc(NC(=O)c2cccc(N3CCCS3(=O)=O)c2)cc1C` → 107	112
Shown for `CCOC(=O)c1ccc(CN(Cc2ccc(F)cc2)S(=O)(=O)c2cc(C(=O)Nc3cccc(C(F)(F)F)c3)ccc2F)cc1` → 106	107

Further results.
Molecule | Polio RdRp inh | Polio RdRp inh intensity
CC(C)Nc1nc2c(S(=O)(=O)c3cccc(Cl)c3)nnn2c2ccsc12 | 110 | 113
O=C(Nc1cccc(F)c1)C1CCN(c2nc3ccccc3[nH]2)CC1 | 113 | 118
CCN(c1ccccc1)S(=O)(=O)c1cc(Br)cc2c1N(C(=O)C1CC1)CC2 | 103 | 108
Cc1nc2nc(NC(=O)c3ccc(Cl)cc3)[nH]n2c(=O)c1Cc1ccccc1 | 104 | 110
O=C(c1cc2c(=O)oc3ccccc3c2s1)N1CCN(c2cccc(Cl)c2)CC1 | 101 | 103
COc1cccc(Nc2nc3c(S(=O)(=O)c4cc(C)ccc4C)nnn3c3ccsc23)c1 | 101 | 103
COc1ccccc1CCNC(=O)C(=O)NCC(c1cccs1)S(=O)(=O)c1ccc(C)cc1 (centres undefined) | 109 | 116
